D2 potentiator: potentiates the human D2 dopamine receptor allosterically | potentiation, % (no concentration beside the values) | 360,000 tested, 0.23% active | P14416 | DiscoveRx D2 beta-arrestin cells, luminescence, 90 min; 100% = 57 uM dopamine signal | AID 624464; active = potentiation of 50% or more; inconclusive = 30% to 50%; inactive = 30% or less;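 note: compound concentration not given in the record; tested on top of an EC20 dose of dopamine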
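PathHunter beta-arrestin assay in DiscoveRx D2 cells. Compounds were added with an EC20 of dopamine (50 nM final) for 90 min at 37 deg C. Luminescence was read 1 h after detection reagent, with 57 uM dopamine as the EC100 control.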
Sfp inh: blocks B. subtilis Sfp PPTase activity; 310,000 tested, 3.5% active; Biochemical Sfp PPTase activity, qHTS; Q9F4F7; Potency, µM, for the others: max response, negative = inhibition, actives largely listed as inhibitors; active = well fitted inhibition curve with a large enough effect; inconclusive = small, poorly fitted or top-dose-only effect, or another doubt; inactive = no such curve, though single readings can be large or run the other way;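 note: the enzyme is Sfp with the accession as filed and its product quenches rhodamine fluorescence; potency is the fitted concentration of half-maximal effect; 0% = enzyme reaction without inhibitor and -100% = no enzyme wells; top concentration of the series not given in the record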
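Reaction rates are the 30-min fluorescence difference (ex 525, em 598 nm) in wells containing 15 nM Sfp, 5 uM rhodamine-CoA and 12.5 uM BHQ-2-YbbR at pH 7.6 with 10 mM MgCl2.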
TRPV1 potentiator: human TRPV1 potentiation. Q8NER1. TRPV1-expressing cells, Fluo-8 calcium influx, capsaicin EC20 potentiation; host cell line not named in the record; control for the full effect not named in the record. potentiation, % at 8.33 µM. 320,000 tested, 0.02% active. AID 540277; active means potentiation above 80%; inconclusive means 30% to 80%; inactive means below 30%; note: 0% is about no effect
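Cells expressing TRPV1 were dye-loaded with Fluo-8 and read kinetically: 10 s baseline, 3 min after compound (agonist portion), then 2 min after EC20 capsaicin (allosteric enhancer portion). Calcium-bound dye fluorescence at 480/520 nm.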
CtBP-E1A inh: blocks the CtBP interaction with E1A. AID 651724. 340,000 tested, 0.49% active. activity change, % (no concentration beside the values). AlphaScreen GST-E1A/His-CtBP binding, 1536-well; active compounds read low; control for the full effect not named in the record; in the data active means activity change below about -65%; inconclusive means about -30% to -65%; inactive means above about -30%; note: % is set by controls: 0 for no effect and ±100 for the full control effect
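Homogeneous bead-based format: GST-tagged E1A captured on glutathione donor beads, His-tagged CtBP on nickel acceptor beads; compounds precede bead addition by 2 h at 37 °C.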
Six1-Eya2 blk: inhibitors of human Six1/Eya2 interaction | Q15475+O00167 | 360,000 tested, 0.56% active | AlphaScreen GST-Six1/His-Eya2 binding, biochemical; active compounds read low; control for the full effect not named in the record | activity change, % (no concentration beside the values); in the data active = activity change below about -65%; inconclusive = about -30% to -65%; inactive = above about -30%; note: % is set by controls: 0 for no effect and ±100 for the full control effect
Target sequence (O00167 whole entry, looked up): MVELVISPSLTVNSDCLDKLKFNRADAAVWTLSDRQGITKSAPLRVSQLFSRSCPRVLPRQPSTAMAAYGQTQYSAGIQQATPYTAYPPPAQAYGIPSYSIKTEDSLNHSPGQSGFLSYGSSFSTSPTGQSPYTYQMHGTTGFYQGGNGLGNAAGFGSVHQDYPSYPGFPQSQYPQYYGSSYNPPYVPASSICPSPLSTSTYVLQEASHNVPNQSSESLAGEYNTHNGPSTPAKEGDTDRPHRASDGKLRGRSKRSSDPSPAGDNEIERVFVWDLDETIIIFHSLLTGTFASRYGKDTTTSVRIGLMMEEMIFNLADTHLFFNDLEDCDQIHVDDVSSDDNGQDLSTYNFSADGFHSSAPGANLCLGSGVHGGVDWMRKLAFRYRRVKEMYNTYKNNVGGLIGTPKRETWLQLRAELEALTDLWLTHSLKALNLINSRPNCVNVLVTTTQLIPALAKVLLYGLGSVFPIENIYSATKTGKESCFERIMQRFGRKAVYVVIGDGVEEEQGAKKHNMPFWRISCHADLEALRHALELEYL
Target sequence (Q15475 whole entry, looked up): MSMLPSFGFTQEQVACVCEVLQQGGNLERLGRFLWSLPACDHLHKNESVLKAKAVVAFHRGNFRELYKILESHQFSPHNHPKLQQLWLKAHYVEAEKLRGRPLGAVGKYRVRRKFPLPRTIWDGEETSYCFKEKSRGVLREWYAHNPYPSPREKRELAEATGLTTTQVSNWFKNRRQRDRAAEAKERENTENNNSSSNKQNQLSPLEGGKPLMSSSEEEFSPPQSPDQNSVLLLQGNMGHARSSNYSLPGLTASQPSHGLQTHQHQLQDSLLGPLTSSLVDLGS
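Homogeneous AlphaScreen proximity assay pairing GST-Six1 with His-tagged Eya2 (added as 5X mix: 250 nM and 500 nM) in 50 mM Tris pH 8.0, 300 mM NaCl, 1 mM TCEP. Glutathione donor and nickel acceptor beads; 1 h, 37 °C, dark.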
PINK1 expr mod: modulators of PINK1 expression; PINK1 immunofluorescence, high-content cytometry, 24 h; 410,000 tested, 0.2% active; Potency, µM (titrated, usually from 76.6 µM), for inactives: top-dose activation (PINK1 increase), actives largely listed as activators; AID 624263; active = well fitted activation curve with a large enough effect; inconclusive = small, poorly fitted or top-dose-only effect; inactive = flat fitted curve, though single readings scatter; cell line not stated here;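 note: potency is the fitted concentration of half-maximal effect; % of control where 0% means no effect; nearly all actives have a fitted effect of over 65% in size; a mitochondrial uncoupler was the plate control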
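Stable cell line, 250 cells/well, 12 h attachment; compounds pinned at 5 concentrations, 24 h; CCCP control. Fixed with nuclear dye, primary antibodies 12 h at 10 degrees C, secondary plus cell stain; laser-scanning cytometer read.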
D2 ag: activates the human D2 dopamine receptor; 360,000 tested, 0.084% active; DiscoveRx PathHunter D2 beta-arrestin, luminescence, 90 min; 100% = 57 uM dopamine signal; activation, % (no concentration beside the values); in the data active = activation above about 40%; inconclusive = about 15% to 40%; inactive = below about 15%; note: compound concentration not given in the record; the text of the record calls up to 30% inactive
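Agonist mode: compounds alone added to overnight-plated D2 PathHunter cells for 90 min at 37 C, with 57 uM final dopamine (EC100) defining full response. Beta-arrestin recruitment detected by chemiluminescent reagent, read after 1 h at ambient temperature.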
* marks the source's active call; other numbers are inactive results; ? = inconclusive; nt = not tested or not shown; & = joins results of further samples; [ ] = another dose, or the depositor's remark.

SMILES	D2 potentiator	Sfp inh	TRPV1 potentiator	CtBP-E1A inh	Six1-Eya2 blk	PINK1 expr mod	D2 ag
CN1CCN(C(=O)c2cccc(-c3cnc4cnc(-c5ccccc5Oc5ccccc5)cn34)c2)CC1	-7.8	nt	nt	-7.7	2.4	-0.1%	1.1
COc1cccc(-c2c(C#N)c(N)nc3c2c(C)nn3-c2ccccc2)c1O	-6.8	-4.7%	-3.6	-21.3	-9.3	-2.0%	13.3
Cc1ccc(OCC(=O)N(C)C2CCCCC2)c([N+](=O)[O-])n1	-2.4	nt	nt	8.6	2.2	-0.6%	-1.7
Cc1ccc2nc(-c3ccc(NC(=O)CSc4nc(N)cc(=O)[nH]4)cc3)sc2c1	-1.7	11.1%	-14.2	3.0	4.2	2.4%	-2.4
CCN(C(=O)c1ccc(=O)[nH]c1)c1c(N)n(Cc2ccccc2)c(=O)[nH]c1=O	-9.0	nt	7.1	nt	29.4	1.1%	-2.0
COc1ccccc1/C=C1\SC(=O)N(CCC(=O)N(C)C2CCS(=O)(=O)C2)C1=O (stereo not given)	-5.2	2.8%	-3.5	-1.4	-0.9	-1.2%	4.0
CCc1ccc(CC(=S)N2CCOCC2)cc1	-10.9	8.3%	-22.8	nt	-1.0	-0.6%	-3.3
CCOc1ccccc1N1CCN(C(=S)Nc2ccc(S(N)(=O)=O)cc2)CC1	4.0	-4.0%	4.4	1.3	-2.0	0.6%	1.8
Cn1nnnc1SCc1ccc(CSc2nnnn2C)cc1	-0.6	23.4%	3.3	0.4	-0.8	0.9%	-3.6
CN1CCN(C(=O)N2CCNC2=O)CC1	11.4	3.6%	1.8	3.6	5.9	-0.9%	-1.3
CC1=C(C(=O)Nc2ccccc2C)C2(CCCCC2)C(C(N)=O)C(=S)N1 (stereo not given)	-5.2	8.5%	-5.6	2.0	6.0	0.3%	-5.4
COc1ccccc1CNC(=O)[C@@H](NC(=O)C1CCN(C(=O)[C@@H]2CCCN2C(=O)OC(C)(C)C)CC1)C(C)C	-15.7	22.4%	-27.9	-6.9	12.4	-0.8%	4.6
C/C(NCC(C)(C)CN(C)C)=C(/C#N)C(=O)NCc1ccccc1	-6.6	13.4%	14.4	4.1	-1.0	0.3%	-0.8
CCc1ccc(S(=O)(=O)Nc2cccc(-c3ccc4nncn4n3)c2)s1	-4.5	11.3%	-11.6	-4.8	6.7	5.1%	5.0
CCNC(=O)NC(=O)CSc1nnc(-c2c[nH]c3ccccc23)o1	-8.4	-1.1%	9.5	?	-24.3	-2.2%	-4.1
COc1ccc(OC)c(/C=N\NC(=O)c2ccc(-c3ccccc3)cc2)c1	3.1	5.3%	2.3	-2.6	4.3	0.1%	3.4
O=S(=O)(c1ccccc1Oc1ccc(Cl)cc1Cl)N1CCCCC1	-10.2	-3.2%	-2.8	9.9	-1.5	10.4%	-4.1
Cc1c(C(=O)Nc2nccs2)oc2ccc(Br)cc12	-0.9	nt	nt	0.0	13.9	-0.9%	-0.7
O=C(N1CCOCC1)N1CCC(n2nnc3cc(F)ccc32)CC1	-23.5	11.9%	?	-8.4	-2.3	-3.1%	-1.6
Cn1c(=O)c2c(nc(OCC3COC(C)(C)O3)n2Cc2ccccc2F)n(C)c1=O (stereo not given)	-10.7	-4.1%	-3.4	1.7	-8.8	-2.2%	0.4
Oc1ccc(/C=C/c2ccnc3ccccc23)cc1	-6.8	?	-10.2	0.0	-4.6	-2.5%	3.7
O=C(Cc1ccccc1)Nc1ccc(NC(=O)c2cccs2)cc1Cl	-8.0	17.7%	2.8	-26.4	-5.7	7.9%	-1.7
Cc1cc(C)c2c(=O)[nH]c(SCc3ccccc3C)nc2n1	2.1	-4.0%	14.7	-3.2	-10.9	-0.3%	-0.6
Cc1ccc(N(CC(=O)NCc2ccccc2)S(=O)(=O)c2c(C)noc2C)cc1	-12.1	10.8%	2.6	1.7	-3.4	11.7%	-0.2
CC(=O)Nc1ccc(NC(=O)c2ccc(N(Cc3ccccc3C)S(C)(=O)=O)cc2)cc1	-2.1	nt	nt	0.1	-7.2	3.2%	8.1
CC(Sc1nc2ccccc2s1)C(=O)N1CCOCC1 (stereo not given)	-8.8	6.0%	-14.0	4.4	-0.7	0.1%	-1.6
Cc1ccc(C(C(=O)NC2CCCC2)N(Cc2ccc3c(c2)OCO3)C(=O)c2snc(C(N)=O)c2N)cc1 (stereo not given)	-6.0	14.5%	22.6	-7.3	-0.7	6.5%	-2.3
COc1ccc(S(=O)(=O)Nc2ccc(NC(C)=O)cc2)cc1Br	-4.7	22.3%	2.3	5.7	5.1	0.5%	2.1
COC(=O)CNC(=O)/C=C/c1ccc(OC)cc1	-5.5	13.8%	7.0	7.6	2.2	7.3%[38.3 µM]	-1.8
CCn1c(O)c(C=NCc2ccccc2)sc1=S	-1.5	-14.1%	7.0	nt	-1.2	-0.3%	5.7
O=C(Nc1ccc(O)c2c(=O)cc(-c3ccccc3Cl)oc12)c1ccc(F)cc1	-6.9	17.6%&2.6%	-6.5	4.5	3.9	2.6%	0.0
Cc1cccc(OCCn2c(=O)sc3ccccc32)c1	2.1	-9.1%	-39.9	13.5	37.6	4.8%	-2.0
CC(C)c1ccccc1NC(=O)c1cccnc1	-1.7	-4.2%	-1.3	-3.5	-10.3	-1.1%	-4.0
Cc1ccc(CCNCc2c(C(=O)O)c(C)n(-c3ccccc3)c2C)cc1	-5.6	-3.2%	-26.4	-0.5	-2.3	-2.7%	-1.1
O=S(=O)(c1ccc(F)cc1)c1nc(-c2ccco2)oc1Nc1ccccc1	-5.3	-8.1%	-0.6	nt	-10.1	-0.6%	-3.7
COc1ccc(NC2CCCN(C(=O)c3ccc(C(C)=O)s3)C2)cc1 (stereo not given)	-8.6	5.5%	-4.5	16.7	12.9	-0.9%	-7.9
CCOc1ccc(Cl)cc1-c1cc(C(=O)NCc2ccccc2)[nH]n1	-14.0	nt	nt	-0.2	-6.6	-0.5%	-5.1
CC(C)(O)C(O)COc1c2ccoc2cc2oc(=O)ccc12 (stereo not given)	-25.8	4.7%	-4.4	-15.2	5.3	-0.6%	-7.9
COc1ccccc1C(CNC(=O)c1oc2ccccc2c1C)N1CCCC1 (stereo not given)	-10.6	nt	-6.2	-4.6	0.1	2.5%	-4.8
CC(=O)N1CCN(Cc2nc3cc(NC(=O)c4cccc(Br)c4)ccc3n2C)CC1	-10.6	24.5%	1.2	7.5	1.4	18.8%	2.0
Cc1ccc(Sc2oc(/C=N/n3cnnc3)cc2Br)cc1	26.2	0.5%	-15.6	4.9	14.0	nt	6.4
c1ccc(-c2ccc(CN3C[C@@H]4C(c5ccccc5)C5(c6cccnc6)CC4(C5)[C@H]3c3ccccc3)cc2)cc1 (stereo not given in full)	-8.8	7.8%&-3.7%	-28.7	0.4	2.3	0.0%	-3.2
CCOc1ccccc1NC(=O)CSc1nnc(-c2ccccn2)n1Cc1ccco1	1.4	-22.4%	10.6	-1.0	-15.9	1.6%	-1.4
CC1SC(=NC(=O)c2ccncc2)NC1=O (stereo not given)	21.3	10.7%	-3.1	1.5	4.5	0.5%	5.6
CS(=O)(=O)N(Cc1ccccc1)c1ccc(C(=O)NC2CCCCC2O)cc1 (stereo not given)	-6.9	-0.7%	-9.2	-0.6	0.9	-1.2%	-2.8

Part of the list above with just D2 potentiator, PINK1 expr mod and Sfp inh:
compound,D2 potentiator,PINK1 expr mod,Sfp inh
Cc1c(C(=O)Nc2nccs2)oc2ccc(Br)cc12,-0.9,-0.9%,nt
CN1CCN(C(=O)c2cccc(-c3cnc4cnc(-c5ccccc5Oc5ccccc5)cn34)c2)CC1,-7.8,-0.1%,nt

Next part.
SMILES	D2 potentiator	Sfp inh	TRPV1 potentiator	CtBP-E1A inh	Six1-Eya2 blk	PINK1 expr mod	D2 ag
Cc1ccccc1-n1c(C)nnc1SCC(=O)N1CC(=O)Nc2ccccc21	-8.3	8.6%	11.7	14.5	-0.3	nt	-1.5
C=CCCC(=O)N1C[C@H]2CON(C)[C@H]2C[C@H]1c1ccccc1Br	nt	nt	nt	2.0	-1.6	0.1%	-1.2
COc1ccc(-c2cc(C(=O)NC3CC3)c3ccccc3n2)cc1	-2.1	4.0%	1.5	nt	4.3	-0.1%	2.2
COc1cccc(N(CC(=O)NCc2ccccc2)C(=O)CCC(=O)Nc2nccs2)c1	-2.6	0.6%	16.6	5.3	-1.3	7.3%	-0.1
C[C@H](CO)N1C[C@H](C)[C@@H](CN(C)S(=O)(=O)c2ccc(F)cc2)Oc2c(NS(=O)(=O)c3ccc(F)cc3)cccc2C1=O	-2.7	nt	nt	-3.7	-1.5	1.6%	-6.9
O=C(/C=C/c1ccc(Cl)cc1Cl)N1CCN(c2ccccc2[N+](=O)[O-])CC1	-11.2	-20.1%	-21.2	-5.4	-0.3	1.8%	-3.4
CCOC(=O)c1c(C)[nH]c(C)c1C(=O)COC(=O)c1cccnc1OCC	1.3	nt	nt	-0.7	-1.3	0.2%	-2.5
Cc1cccc(NC(=S)NC2CC3CCC(C2)N3Cc2ccco2)c1 (stereo not given)	-27.7	6.4%	17.9	2.8	-0.1	nt	-0.1
COc1ccc(-n2c(SCC(=O)NCC3CCCO3)nc3c([nH]c4ccccc43)c2=O)cc1OC (stereo not given)	-3.3	12.3%	2.9	4.1	2.5	3.1%	2.0
COc1ccccc1N1CCN(Cc2nc(N)nc(Nc3ccc(C)c(Cl)c3)n2)CC1	-7.2	5.2%	-23.5	-13.6	-11.6	-0.2%	1.4
CCCc1cc(=O)[nH]c(SCC(=O)Nc2sc(C(N)=O)c(C)c2C(=O)OCCOC)n1	3.6	nt	17.8	?	-7.5	-0.6%	-1.0
COc1cc(CNC(=O)c2cnc(C)cn2)cc(OC)c1	-22.5	-0.1%	-4.1	-17.7	-2.8	1.4%	-2.2
O=C(NCc1ccccc1)c1nccnc1CO	-7.2	8.2%	15.6	-7.7	2.4	2.5%	-4.1
COC(=O)c1ccc2nc(-c3ccc(F)cc3)c(Cc3cccc(F)c3)n2c1	nt	nt	nt	4.6	-0.4	4.2%	nt
Cc1cc(C)n2nc(SCC(=O)Nc3c(C)n(C)n(-c4ccccc4)c3=O)nc2n1	-15.9	6.3%	1.4	-3.3	-2.7	0.0%	-2.5

Of the compounds above, these contain a nitro group on carbon:
SMILES	D2 potentiator	Sfp inh	TRPV1 potentiator	CtBP-E1A inh	Six1-Eya2 blk	PINK1 expr mod	D2 ag
Cc1ccc(OCC(=O)N(C)C2CCCCC2)c([N+](=O)[O-])n1	-2.4	nt	nt	8.6	2.2	-0.6%	-1.7
O=C(/C=C/c1ccc(Cl)cc1Cl)N1CCN(c2ccccc2[N+](=O)[O-])CC1	-11.2	-20.1%	-21.2	-5.4	-0.3	1.8%	-3.4
